KCNQ2 inh: KCNQ2 channel blockers in CHO-K1 cells – cell-based, FluxOR thallium flux, B-score, primary screen (AID 2156); 20 min; hits give low values; only compounds with negative scores are shown here; some inactives read as strong as hits; B-score at 10 µM; 310,000 compounds, 1.1% hits;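 active = fluorescence ratio B-score at most minus 3 library SDs, with starting brightness B-score within 2 library SDs, cut at about -5.5 in these data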
Target sequence (O88943 whole entry, looked up): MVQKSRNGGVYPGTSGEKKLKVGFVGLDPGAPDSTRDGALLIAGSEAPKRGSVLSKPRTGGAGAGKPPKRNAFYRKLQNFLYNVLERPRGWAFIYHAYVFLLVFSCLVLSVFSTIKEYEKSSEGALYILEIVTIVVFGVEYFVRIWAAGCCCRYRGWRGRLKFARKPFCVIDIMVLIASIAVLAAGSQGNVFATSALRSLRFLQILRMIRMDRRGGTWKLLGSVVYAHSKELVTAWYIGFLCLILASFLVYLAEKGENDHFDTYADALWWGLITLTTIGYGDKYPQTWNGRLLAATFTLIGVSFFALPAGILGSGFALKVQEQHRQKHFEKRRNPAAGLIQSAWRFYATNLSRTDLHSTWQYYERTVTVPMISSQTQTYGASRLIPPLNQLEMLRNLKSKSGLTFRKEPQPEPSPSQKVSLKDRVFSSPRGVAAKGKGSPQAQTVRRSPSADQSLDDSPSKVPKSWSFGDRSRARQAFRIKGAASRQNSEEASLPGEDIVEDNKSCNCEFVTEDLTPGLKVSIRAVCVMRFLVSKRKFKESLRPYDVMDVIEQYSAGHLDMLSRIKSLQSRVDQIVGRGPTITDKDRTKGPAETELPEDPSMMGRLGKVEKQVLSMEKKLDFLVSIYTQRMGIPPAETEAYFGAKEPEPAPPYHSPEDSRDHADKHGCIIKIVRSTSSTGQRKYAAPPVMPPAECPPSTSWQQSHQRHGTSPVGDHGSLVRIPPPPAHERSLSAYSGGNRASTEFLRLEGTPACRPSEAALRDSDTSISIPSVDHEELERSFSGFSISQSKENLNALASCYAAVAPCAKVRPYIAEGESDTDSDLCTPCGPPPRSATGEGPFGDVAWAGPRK
KCNQ2 inh baseline: also measured in KCNQ2 inh; calls as there; B-score; measured here: initial fluorescence intensity artifact check;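 brightness before thallium and not channel activity; 0 = typical well and far values either way flag optical interference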
Numbers without * were called inactive; i = inactive. Some of the compounds tested. The share of hits here may be higher or lower than overall.

The line under a structure holds: KCNQ2 inh, KCNQ2 inh baseline
Cc1nn(C)c(=S)n1-c1ccc(Cl)cc1
→ i, 0.69
CCOC(=O)c1c(CN2CCN(Cc3ccccc3)CC2)n(C)c2cc(Br)c(OC)cc12
→ i, 1.2
CCc1cc2c(N3CCN(c4ccccc4)CC3)ncnc2s1
→ i, 0.06
Cc1ccc(S(=O)(=O)N2CCC(C(=O)NCCCN3CCOCC3)CC2)cc1
→ i, -0.87
CCCn1c(N)c(N(CCOC)C(=O)c2cc(C)cc(C)c2)c(=O)[nH]c1=O
→ i, 1
Cc1ccc(C)c(N2CCN(S(=O)(=O)c3cn(C)cn3)CC2)c1
→ i, 1.4
CCCc1cc(=O)[nH]c(SCC(=O)N2CCN(S(=O)(=O)c3ccc4ccccc4c3)CC2)n1
→ i, -0.04
CCOc1ccc(S(=O)(=O)NCc2csc(C)n2)cc1
→ i, 0.91
CCn1cc(CN2CCC(C(=O)Nc3cccc(-c4cccc(Cl)c4)c3)CC2)c(C)n1
→ i, 0.55
COc1cccc(/C=N/n2c(C3CCCCC3)n[nH]c2=S)c1
→ i, 0.34

Sorted by value in KCNQ2 inh baseline (lowest first): three from the list above.
The line under a structure holds: KCNQ2 inh, KCNQ2 inh baseline
CCCc1cc(=O)[nH]c(SCC(=O)N2CCN(S(=O)(=O)c3ccc4ccccc4c3)CC2)n1
→ i, -0.04
COc1cccc(/C=N/n2c(C3CCCCC3)n[nH]c2=S)c1
→ i, 0.34
Cc1ccc(C)c(N2CCN(S(=O)(=O)c3cn(C)cn3)CC2)c1
→ i, 1.4

More results.
The line under a structure holds: KCNQ2 inh, KCNQ2 inh baseline
CCOC(=O)C1=NNC2(CC(=O)N(c3cccc(C)c3)C2=O)C1 (configuration not stated)
→ i, -0.14
COc1ccc(CN2CCNC(=O)C2CC(=O)NCCc2nc(C)c(C)s2)c(OC)c1 (configuration not stated)
→ i, 0.46
CCN(CC)S(=O)(=O)c1cccc(C(=O)OCC(=O)NCc2ccccc2OC)c1
→ -6.5*, -1.7*
CCCC(C)NC(=O)c1cccc(Oc2ccccc2)c1 (configuration not stated)
→ i, -0.16
C=CCNC(=O)C1CC2Cn3c(nc4cc(Cl)c(Cl)cc43)C2N1C (configuration not stated)
→ i, -0.86
O=C1C2C3C=CC(CC3)C2C(=O)N1c1cccc(Br)c1 (configuration not stated)
→ i, -3.4
Clc1ccc(/C=N/Nc2nnc(-c3ncc[nH]3)c3ccccc23)cc1
→ -5.7*, -0.85*
CN(Cc1nc(CC2CC2)no1)CC12CC3CC(CC(C3)C1)C2
→ i, -0.17
CC(CCc1ccco1)NC(=O)c1cccc2c1C(=O)N(C1CCCCC1)C2 (configuration not stated)
→ i, -1.4
Cc1ccc(SCc2c(-c3ccccc3)nn(C)c2Cl)cc1
→ i, 2.4
O=C1NC(=Nc2cccc(O)c2)S/C1=C\c1cccnc1
→ i, -1.3
Cc1cccc(N2CCN(S(=O)(=O)c3ccc4c(c3)NC(=O)C(C)S4)CC2)c1C (configuration not stated)
→ i, 0.97
COc1ccccc1NS(=O)(=O)c1cc(NC(=O)CC(C)(C)C)ccc1N1CCOCC1
→ i, 0.6
Cc1ccc(C(=O)Nc2nc(-c3ccccn3)cs2)o1
→ i, 2.5
Cc1ccc(NC2=NCC(=O)N2Cc2ccc3c(c2)OCO3)cc1
→ i, 1.4
Cc1ccc(-n2c(SCC(=O)N/N=C/c3ccc(C)s3)nnc2-c2ccccc2)cc1
→ i, 0.3
CC(=O)Nc1ccc(NC(=O)CSc2nc3ccccc3nc2N2CCCCC2)cc1
→ i, 0.07
Cc1cc(C)n2nc(C(=O)OCC(=O)NC3CCCCC3)nc2n1
→ i, 0.35
COc1cccc(CN(CC(=O)NCC2CCCO2)C(=O)CNS(=O)(=O)c2ccccc2)c1 (configuration not stated)
→ i, -0.97
Clc1ccc(-c2csc(NNC3=NCCCCC3)n2)cc1
→ i, 2.8
CC(=O)c1c(C)[nH]c(C(=O)OCC(=O)Nc2ccc3[nH]c(=O)[nH]c3c2)c1C
→ i, 0.9
O=C(Nc1ccc(F)cc1F)Nc1ccccc1C(=O)NCCN1CCNC1=O
→ i, 2.5
COc1ccc(NC(=O)c2nc[nH]c2C(=O)N[C@@H](CC(C)C)C(=O)OC(C)(C)C)cc1
→ i, 1.7
Cc1ccc(NC(=O)[C@H](NC(=O)[C@@H]2Cc3ccccc3CN2)c2ccccc2)cc1C
→ i, -1.5
CCOC(=O)c1cnc2c(C)cccc2c1Nc1ccc(N2CCOCC2)cc1
→ i, -1.4
CCCCCCCOC(=O)C1=C(C)Nc2ncnn2C1c1cccs1 (configuration not stated)
→ i, 2.1
COc1ccc(C(=O)OCC(=O)NC(C)CCc2ccccc2)c(OC)c1 (configuration not stated)
→ i, 0.13
COC(=O)c1sc(S(=O)(=O)N2CCCCC2)c(C(=O)OC)c1C
→ i, -1.9
S=C(NCc1ccccc1)NCC1COc2ccccc2O1 (configuration not stated)
→ i, 0.19
c1ccc(-n2c(SCC3CCCCO3)nnc2-c2cccs2)cc1 (configuration not stated)
→ i, -0.1
O=C(NCC(c1ccco1)N1CCc2ccccc2C1)c1ccc(Cl)c([N+](=O)[O-])c1 (configuration not stated)
→ -5.8*, -2.5*
CCc1ccc(/C=N/NC(=S)NCCc2ccccc2)cc1
→ i, 0.06
CCN(CC)C(=O)C1=C(C)Nc2nc3ccccc3n2C1c1cccc(OC)c1 (configuration not stated)
→ -7.7*, 0.28*
S=C(NCC1CCCO1)N1CCc2ccccc2C1 (configuration not stated)
→ i, 0.16
COc1ccc(Oc2ccc(C(F)(F)F)cc2NC(=O)c2ccc(OC)cc2)cc1
→ i, -0.22
COc1cc(C2C3=C(CCCC3=O)OC3=C2C(=O)CCC3)ccc1OCC(=O)Nc1ccccc1
→ i, 0.59
CCOc1ccc(CCNC(=O)c2ccc3nc(N4CCOCC4)sc3c2)cc1OCC
→ i, 1.5
O=C(NCCCN1CCOCC1)c1ccc(CS(=O)(=O)c2ccc(Br)cc2)o1
→ i, -0.6
COc1ccc(C2=NN(C(=O)c3cccs3)C(c3ccc(OC)cc3)C2)cc1 (configuration not stated)
→ i, -1.9
O=Cc1cn(CC(=O)Nc2ccccc2)c2ccccc12
→ i, -1.3
O=C(CSc1ncnc2c1nnn2Cc1ccc(F)cc1)NC1CCCCC1
→ i, -0.33
CC(=O)Nc1nc(N)n(-c2ccccc2)n1
→ i, 0.46
O=C(NCc1ccc(F)cc1)C1CCC(CNc2c(N3CCCCC3)c(=O)c2=O)CC1 (configuration not stated)
→ i, -0.54
Cc1nc(Oc2ccccc2)c2ccccc2n1
→ i, 0.48
CCCc1cc(C(=O)Nc2cccc(Cl)c2)no1
→ i, 1.2
CCNC(=O)c1c(NC(=O)C2COc3ccccc3O2)sc2c1CCCC2 (configuration not stated)
→ i, -0.01
COc1ccc(N(C)S(=O)(=O)c2ccc3c(c2)oc(=O)n3C)cc1
→ i, 0.27
COC(=O)C1CCN(S(=O)(=O)c2ccc(OC)cc2)CC1
→ i, -0.02
COc1ccccc1CNC(=O)CSc1ccc(C)cc1
→ i, 1.5
COc1ccc(NC(=O)CSc2nnc(Cc3cccn3C)n2CCc2ccccc2)cc1OC
→ i, 0.86

Further results.
The line under a structure holds: KCNQ2 inh, KCNQ2 inh baseline
CCOC(=O)C1CCN(C(c2cc3ccc(C)cc3[nH]c2=O)c2nnnn2C2CCCCC2)CC1 (configuration not stated)
→ i, -1.4
CCCC1=C(C(=O)OCC)C(c2ccccc2OCC)NC(=O)N1C (configuration not stated)
→ i, -0.01
O=C(Nc1ccc(S(=O)(=O)N2CCCCC2)cc1)C1CCCCC1
→ i, 0.31
CC1=C(C(=O)N2CCc3ccccc32)C2(CCC(C)CC2)OC1=O (configuration not stated)
→ i, -0.17
COc1cccc(CNC(=O)Cc2ccc(NC3=NC4CS(=O)(=O)CC4S3)cc2)c1 (configuration not stated)
→ i, 0.42
COCCOC(=O)C1=C(C)N(Cc2ccccc2)C(=O)NC1c1ccc(OC)cc1 (configuration not stated)
→ i, -0.12
COc1ccc(CNC(=O)COC(=O)CC2CCCC2)cc1
→ i, 1.1
CC(=O)NCC(=O)N1CCCC(C(=O)c2ccc(-c3ccccc3)c(F)c2)C1 (configuration not stated)
→ i, -0.02
O=C(NCc1ccc(Cl)cc1)c1ccc(Cl)cc1[N+](=O)[O-]
→ i, -2.6
Cc1ccc2c(COC(=O)c3ccc(NC(=O)CC#N)cc3)cc(=O)oc2c1C
→ i, 1.9

Shown with values ahead of the structure: part of the list above
KCNQ2 inh | KCNQ2 inh baseline | smiles
i | 0.31 | O=C(Nc1ccc(S(=O)(=O)N2CCCCC2)cc1)C1CCCCC1
i | -1.4 | CCOC(=O)C1CCN(C(c2cc3ccc(C)cc3[nH]c2=O)c2nnnn2C2CCCCC2)CC1 (configuration not stated)
i | -0.01 | CCCC1=C(C(=O)OCC)C(c2ccccc2OCC)NC(=O)N1C (configuration not stated)
i | -0.02 | CC(=O)NCC(=O)N1CCCC(C(=O)c2ccc(-c3ccccc3)c(F)c2)C1 (configuration not stated)
i | -0.12 | COCCOC(=O)C1=C(C)N(Cc2ccccc2)C(=O)NC1c1ccc(OC)cc1 (configuration not stated)

(continued)
The line under a structure holds: KCNQ2 inh, KCNQ2 inh baseline
COc1cc(CNCc2ccccn2)ccc1OCc1ccc(Cl)c(Cl)c1
→ -5.9*, -1.8*
O=C(N=C1SC2CS(=O)(=O)CC2N1Cc1ccc(Cl)cc1)C1CCCO1 (configuration not stated)
→ i, -1.4
COC(=O)C1=C(C)NC(C)=C(C(=O)OCC2CCCO2)C1c1ccc(Cl)c([N+](=O)[O-])c1 (configuration not stated)
→ i, -1.3
COC(=O)Nc1nc2ccc(-c3n[nH]c(=O)c4ccccc34)cc2[nH]1
→ i, -2.4
COc1ccc2c(c1)C=C(CN1CCN(C3CCCC3)C(CCO)C1)CO2 (configuration not stated)
→ i, 0.06
CC(C)Cn1c(-c2ccc(Br)cc2)c[nH]c1=S
→ i, 0.97
O=C(CO)N/N=C/c1ccc(Cl)cc1
→ i, 1.2
CCc1ccc(N2C(=O)Nc3ccccc3C2(O)C(=O)N2CCN(c3ccccn3)CC2)cc1 (configuration not stated)
→ i, 0.57
COc1ccc(-n2c(N)c(C(=O)NCc3ccco3)c3nc4ccccc4nc32)c(OC)c1
→ i, -0.09
O=C(Nc1ccc(N2CCOCC2)c(Cl)c1)c1ccc(Br)o1
→ i, -0.16
C=C(C)COc1ccc(-c2nc(N)nc(C)c2-c2ccc(OC)cc2)c(O)c1
→ i, 2.2
CC(CNCC1CCCO1)COc1cccc2ccccc12 (configuration not stated)
→ i, 0.68
Cc1cccc(NC(=O)CN2C(=O)NC(C)(c3ccc4ccccc4c3)C2=O)n1 (configuration not stated)
→ i, 0.57
CN(C)c1ccc(/C=C/C=C2/SC(=S)N(c3ccccc3)C2=O)cc1
→ i, 1.2
CCC1(c2ccccc2)NC(=O)N(CC(=O)NCc2ccncc2)C1=O (configuration not stated)
→ i, -1.4
CN(CC(=O)NC1CCCCCC1)S(=O)(=O)c1ccccc1
→ i, 0.35
COCCNC(=O)C(c1ccc(C)cc1)N(C(=O)CCC(=O)Nc1ccccn1)C1CCCCC1 (configuration not stated)
→ i, -3.1
CCC(c1nnc(SCC(=O)NC2CCCCC2)n1Cc1ccccc1)N(C)C (configuration not stated)
→ i, 1
Oc1c(C=C2N=c3ccccc3=N2)sc(=S)n1C1CCCC1
→ i, -0.96
CC(C)Cn1c(CCC(=O)O)ccc1-c1cccs1
→ i, 0.21
Cc1cccc(S(=O)(=O)c2c(C)cc(C)nc2Cl)c1
→ i, 0.21
COc1ccc2nc(C)cc(SCC(NC(C)=O)C(=O)OC(C)C)c2c1 (configuration not stated)
→ i, -0.71
COc1ccc(C2NC(=O)C(C#N)=C(S)N2c2cccc(C)c2)cc1OC (configuration not stated)
→ i, 1.6
Nc1ncnc(Nc2c(F)cccc2F)n1
→ i, 1.8
CC(=O)Oc1ccccc1C(=O)Nc1ccccc1C(=O)N1CCCC1
→ i, -0.13
C#CCOCCOCCOCCNc1nc(N2CCN(C(=O)[C@H](CCCCN)n3cc([C@@H](N)C(C)CC)nn3)CC2)nc(N2CCN(C(=O)[C@H](CCCCN)n3cc([C@@H](N)CC(C)C)nn3)CC2)n1 (some centres not stated)
→ i, 0.35
O=c1cc(CCl)nc2scc(-c3ccccc3)n12
→ i, -0.81
Cc1ccc(F)c(NC(=O)CCc2ccccc2)c1
→ i, -0.99
CC(C(=O)Nc1ccccc1-c1ccccc1)N(C)Cc1nc2ccccc2c(=O)[nH]1 (configuration not stated)
→ i, 0.75
O=C(NCCCN1CCN(CCCNC(=O)c2cc([N+](=O)[O-])ccc2Cl)CC1)c1cc([N+](=O)[O-])ccc1Cl
→ i, -0.43
CC1(C)Cc2c(sc(NC(=O)c3ccc(S(=O)(=O)N4CCCCCC4)cc3)c2C(N)=O)C(C)(C)N1
→ i, 0.11
NC(=S)N/N=C/c1cn(CCC(=O)O)nc1-c1cccc(Br)c1
→ i, -0.05
CCOc1ccc(N(CC(=O)NCCSCc2ccco2)S(=O)(=O)c2ccc(F)cc2)cc1
→ i, 0.72
CCCN(CCC)c1ncnc2nc[nH]c12
→ i, 0.58
COc1cc(NC(=S)NCCc2c[nH]c3ccccc23)c(OC)cc1Cl
→ i, -0.7
COC(=O)c1cn(N(C)c2ncc(C(F)(F)F)cc2Cl)c(=O)c2ccccc12
→ i, 0.7
C/C(Cn1cnc([N+](=O)[O-])n1)=N/NC(=O)COc1c(Cl)cc(Cl)cc1Cl
→ i, 0.86
CC(C)CN(C(=O)COC(=O)c1cccn1C)c1c(N)n(Cc2ccccc2)c(=O)[nH]c1=O
→ i, -0.02
CCOC(=O)Cc1nn(CCc2ccccn2)c(=O)c2ccccc12
→ i, 0.39
O=C(NC1CCCc2ccccc21)c1cccc(S(=O)(=O)N2CCOCC2)c1 (configuration not stated)
→ i, 0.1
Cc1ccc(O)c(C2=Nc3ccccc3N=C(c3cccs3)C2)c1
→ -5.6*, 0.44*
CCc1ccc(NC(=O)C2=CC(c3cccs3)=NS(=O)(=O)N2C)cc1
→ i, 0.73

Bioassay records from PubChem BioAssay.
